StopGo RLuc: lowers the Renilla signal of an FMDV 2A StopGo reporter. Potency, µM (highest dose often 57.5 µM), for inactives: at the highest dose signal change, negative = less light. 120,000 tested, 0.32% active. HEK cells with a luciferase reporter of 2A StopGo recoding; active means well fitted falling curve with a large enough effect; inconclusive means small, poorly fitted or top-dose-only effect; inactive means no such curve, though single readings can be large or run the other way; also: nearly all actives have a fitted effect of over 55% in size; overnight with compound
2A firefly: FMDV 2A StopGo reporter, firefly signal; 120,000 tested, 0.23% active; Potency, µM (series often up to 57.5 µM), for inactives: at the top dose signal change, negative = less light; HEK cells with a luciferase reporter of 2A StopGo recoding; active = well fitted falling curve with a large enough effect; inconclusive = small, poorly fitted or top-dose-only effect; inactive = no such curve, though single readings can be large or run the other way; also: nearly all actives have a fitted effect of over 60% in size; overnight with compound
* hit, by the source's call; ? = inconclusive; & = joins results of further samples; [ ] = dose if it differs, or a comment. % is scaled to controls: 0 for no effect and ±100 for the full control effect; potency is read from the fitted curve at half-maximal effect. A portion of the library; rates above refer to the full screens.

Molecule	StopGo RLuc	2A firefly
N/C(COc1ccccc1Cl)=N\O	6%	13%
COc1cccc(N2C(=O)C(CC(=O)Nc3ccccc3)N(CCc3sccc3C)C2=O)c1 (stereo not given)	0%	-17%
Cc1ccc(C(=O)Nc2cccc(C#N)c2)cc1F	1%	172%[activator]
Cn1nc(C(=O)Nc2ncc(Cc3ccc(Cl)cc3)s2)ccc1=O	-16%	4%
CC(=O)N1CCN(S(=O)(=O)c2cccc3cc(C)cnc23)CC1	-4%	1%
COc1ccc2cc(-c3csc(Nc4ccc(F)cc4)n3)c(=O)oc2c1	-4%	140%[activator]
O=C(Nc1ccc(F)cc1)c1ccc(-n2cnc3cccnc32)cc1	-9%	62%[activator]
Cc1[nH]nc2c1C(c1ccc(-c3ccc(F)cc3)o1)SCC(=O)N2 (stereo not given)	-11%	11%
COc1ccc(OC)c(NS(=O)(=O)c2ccc3c(c2)CCCN3C(=O)C2CCC2)c1	99%[activator]	-18%
c1ccc2c(c1)OCC(C1=NCCN1)O2 (stereo not given)	-3%	-4%[11.5 µM]
O=C(OCc1cc(=O)n2nc(C3CC3)sc2n1)c1cccc(NC(=O)c2ccccc2Cl)c1	70%[activator]	84%[activator]
CCC(CC)c1nn2c(=O)cc(COc3ccc(NC(=O)c4ccccc4Cl)cc3)nc2s1	-12%	-17%
O=C(c1n[nH]c(=O)c2ccccc12)N1CCN(S(=O)(=O)c2ccccc2F)CC1	-14%	-11%
Cc1ccc(CNC(=O)C(NS(=O)(=O)c2cccs2)C(C)C)cc1 (stereo not given)	12%	-23%
O=C(Nc1ccc2oc(-c3cccc4c(Br)cccc34)nc2c1)c1ccc(F)cc1	-2%	-5%
O=C(Nc1ccc2oc(-c3ccc(Cl)cc3)nc2c1)c1ccccc1	22%	11%
Cc1cccc(CNC(=O)c2ccc(C)c(-n3c(C)nc4cccnc43)c2)c1	-7%	-11%
CCCCN(C(=O)c1ccc2c(=O)n3c(nc2c1)CCCCC3)c1ccccc1	24%	1%
Cc1onc(-c2ccccc2Cl)c1C(=O)NCc1ccco1	-9%	-3%
COc1ccc(OC)c(NC(=O)CCNS(=O)(=O)c2cccc3nsnc23)c1	25%	17%

A second format for some results above:
Values run as follows: StopGo RLuc	2A firefly
- N/C(COc1ccccc1Cl)=N\O
  6%	13%
- Cc1onc(-c2ccccc2Cl)c1C(=O)NCc1ccco1
  -9%	-3%
- Cc1[nH]nc2c1C(c1ccc(-c3ccc(F)cc3)o1)SCC(=O)N2 (stereo not given)
  -11%	11%
- O=C(Nc1ccc2oc(-c3ccc(Cl)cc3)nc2c1)c1ccccc1
  22%	11%
- COc1ccc(OC)c(NC(=O)CCNS(=O)(=O)c2cccc3nsnc23)c1
  25%	17%
- Cc1ccc(CNC(=O)C(NS(=O)(=O)c2cccs2)C(C)C)cc1 (stereo not given)
  12%	-23%
- CCCCN(C(=O)c1ccc2c(=O)n3c(nc2c1)CCCCC3)c1ccccc1
  24%	1%

Next section
Molecule	StopGo RLuc	2A firefly
CC(C)Cc1nc(C#N)c(NC(C)c2ccccc2)o1 (stereo not given)	24%	18%
Cc1ccc(N2C(=O)CS(=O)(=O)C23C(=O)N(Cc2ccccc2C)c2ccccc23)cc1Cl (stereo not given)	-5%	2%
Cc1cc(/C=C(\C#N)c2nc3ccccc3[nH]2)cc2c1OC(C)C2 (stereo not given)	?	9%
Cc1ccc(N/N=C/c2ccc(C#N)cc2)cc1Cl	4%	182%[activator]
CC1(c2ccc(Cl)cc2)CC(C)(C)N(C(=O)c2cccc(F)c2)c2ccccc21 (stereo not given)	0%	0%
Cc1ccc(NC(=O)CCc2ncc(-c3ccc(F)cc3F)o2)c(C)c1	-20%	-5%
CCOc1ccccc1N(C)C(=O)Cn1cnc2sc(C)c(S(=O)(=O)N3CCC(C)CC3)c2c1=O	67%[activator]	34%[activator]
Cc1cc(C(C)(C)C)cc(C)c1S(=O)(=O)N1CCN(Cn2nc(C)c3ccccc3c2=O)CC1	-3%	4%
CCN(C(=O)CSc1nc2ccccc2nc1Cc1ccccc1OC)c1ccccc1	5%	100%[activator]
CCN(CC)S(=O)(=O)c1cc(NS(=O)(=O)c2ccc(C)cc2C)ccc1C	295%[activator][1.06 µM]	-19%
COc1ccc(S(=O)(=O)N(C)CC(=O)NCC2CCCO2)cc1Cl (stereo not given)	10%	14%
O=C(CCCn1c(=O)c2ccccc2n(Cc2cccc(Cl)c2)c1=O)NCCc1ccc(Cl)cc1	-9%	21%
COc1ccc(Oc2ccc(NC(=O)Cn3ncc4ccc(OC)c(OC)c4c3=O)cc2)cc1	?	0%
O=C(O)C(c1c[nH]c2ccc(Br)cc12)N1CCN(Cc2ccc(Cl)cc2Cl)CC1 (stereo not given)	-17%	-14%
COc1ccc(Cl)cc1NC(=O)N(C)CCc1c(C)nn(C)c1C	32%[activator]	78%[activator]
CCn1c(C(=O)NCc2ccccc2OC)cc2sccc21	-9%	-6%
CN(C)CCNC(=O)CCCn1c(=O)c2cccn2c2ccccc21	-10%	-20%
COC1=C(OC)C2(C=CC1=O)CC(C)(C)N=C2SC (stereo not given)	-1%	2%
Cc1ccccc1NC(=O)CSc1nc(-c2ccc(F)cc2)c2cccc(C)c2n1	-13%	-11%
N#Cc1c2n(c(=O)n(CCOc3ccccc3F)c1=O)CCC2	-8%	88%[activator]

Molecules from the list above with bromine:
Molecule	StopGo RLuc	2A firefly
O=C(Nc1ccc2oc(-c3cccc4c(Br)cccc34)nc2c1)c1ccc(F)cc1	-2%	-5%
O=C(O)C(c1c[nH]c2ccc(Br)cc12)N1CCN(Cc2ccc(Cl)cc2Cl)CC1 (stereo not given)	-17%	-14%

The list goes on:
Molecule	StopGo RLuc	2A firefly
C=CCCC(=O)NC1CCN(Cc2cccc(C(F)(F)F)c2)CC1	-15%	-16%
S=C(Nc1ccccc1Cl)N(Cc1ccccc1)c1ccccc1	7%	39%[activator]
Cc1ccc2c(COC(=O)Cc3n[nH]c(=O)c4ccccc34)cc(=O)oc2c1C	-3%	3%
Cc1cccc(-c2nc3scc(CCNC(=O)c4ccccc4Cl)n3n2)c1	7%	12%
COC(=O)c1ccc(NC(=O)c2cc(=O)c3ccc(C)cc3o2)cc1	-13%&-12%	-12%&-7%
NCCc1ccc(O)cc1	-5%&-8%	-7%
O=C(O)CCn1cc(C(C(=O)O)N2CCN(Cc3ccncc3)CC2)c2ccc(F)cc21 (stereo not given)	-6%	3%
COc1c(CNCC(O)COc2ccccc2)c(C(C)C)nn1C (stereo not given)	-4%	-6%
CCOc1cc(CNS(=O)(=O)c2ccc3c(c2)CC(=O)N3C)cc(OCC)c1OCC	-3%	-9%
Cc1ccc(Cl)cc1S(=O)(=O)N(C)Cc1nc2ccccc2[nH]1	16%	20%
COc1ccc(-c2nc(CSCC(=O)NC3CCC(C)CC3)c(C)o2)cc1OC (stereo not given)	?	?
COc1ccc(OC)c(CNC(=O)C2CCN(c3nnc(N4CCCCC4=O)s3)CC2)c1	-11%	5%
CC1CCc2c(sc3nnn(CC(=O)Nc4ccccc4Cl)c(=O)c23)C1 (stereo not given)	2%	-4%
Cc1cccc(NC(=O)CCCn2c(C)c3cnn(-c4ccccc4)c(=O)c3c2C)c1C	-6%	12%
COc1cc(OC)c(C2C(C(=O)Nc3ccccc3)=C(C)Nc3ncnn32)cc1OC (stereo not given)	-17%	-24%
CN(C)c1ccc(C(=C2C=CC(=[N+](C)C)C=C2)c2ccccc2)cc1	?	?
COc1cc(C(=O)N2CCC(CC(=O)NCCN3CCCC3)CC2)cc(OC)c1OC	-14%	-9%
Cn1ccnc1C(NC(=O)Cc1n[nH]c(=O)c2ccccc12)c1ccc(F)cc1 (stereo not given)	-6%	-3%
COc1ccc(NC(=O)Cn2c(=O)oc3cc(S(=O)(=O)N4CCCC4)ccc32)cc1OC	-1%	0%
Cc1ccc2[nH]c(=O)c3cc(C(=O)N(CCCOC(C)C)Cc4ccco4)sc3c2c1	8%	-15%
Cn1c(=O)oc2cc(S(=O)(=O)N3CCCC(C(=O)N4CCN(c5ccc(F)cc5)CC4)C3)ccc21 (stereo not given)	-6%	-8%
Cc1ccc2oc(C(=O)Nc3ccc(S(=O)(=O)N(C)Cc4ccccc4)cc3)cc(=O)c2c1	-2%&-5%	-7%&-13%
Cc1ccc(NC(=O)c2cc3c(s2)CCCCC3)cc1	-14%	0%
Cc1ccc(C(N)=O)c(OCc2coc(-c3ccc(F)cc3)n2)c1	-15%	-5%
CC1=C(C(=O)OCc2ccc(C)cc2)C(c2ccccc2Cl)CC(=O)N1 (stereo not given)	-7%	-11%
N#Cc1c(C(F)(F)F)cc(-c2cccs2)nc1SCC(=O)Nc1ccc(Cl)cc1	-10%	-17%
CCC(NC(=O)CCc1c(C)nc(SC)nc1C)c1ccc(Br)cc1 (stereo not given)	-2%	-5%
COc1ccc(N2CCN(S(=O)(=O)c3ccc(-c4ccno4)cc3OC)CC2)cc1	25%	0%
Cn1c(=O)c2c(nc(CN3CCN(Cc4ccccc4)CC3)n2CC(N)=O)n(C)c1=O	1%	3%
COc1ccc(C(=O)Oc2cc(C)ccc2C(C)C)cc1Br	5%	8%
CC1=C(c2ccc(C)cc2)S(=O)(=O)N(Cc2ccc(C(=O)Nc3ccc(F)cc3C)cc2)C1=O	0%	13%
CCOc1ccc(NC(=O)CSc2nnc(NC(=O)Nc3ccccc3)s2)cc1	-2%	2%
Cc1c(-c2ccccc2)[nH]c2ccc(Cl)cc12	16%	224%[activator]
O=C(/C=C/c1cccs1)N(Cc1ccco1)C1CC1	68%[activator]	0%
Cc1ccc2c(c1)cc(C(=O)Nc1ccccc1C)n2C	19%&40%	102%&26%[activator]
CCOC(=O)CSc1nc2ccccc2c(=O)n1CCc1ccc(OC)c(OC)c1	-14%	-8%
CCCCN1CC(C(=O)Nc2ccc(C(=O)Nc3ccc(Br)cc3C)cc2)CC1=O (stereo not given)	-16%	110%[activator]
O=C1CCCC2=C1C(c1cc(Cl)ccc1OCc1ccc([N+](=O)[O-])cc1)C1=C(CCCC1=O)O2	5%	-1%
O=C(OCc1ccccc1Cl)c1cccc(O)c1	2%	0%
COc1ccc(-n2cc3c(c2-c2cccc(Br)c2)c(=O)n(C)c(=O)n3C)cc1OC	11%	-4%
COc1ccc([N+](=O)[O-])cc1NC(c1nnc(-c2ccccc2)o1)c1ccccc1F (stereo not given)	4%	-5%
CC(C)S(=O)(=O)c1oc(-c2ccc(F)cc2)nc1S(=O)(=O)c1ccc(F)cc1	-5%	?
c1ccc(OCCNC2CCCC2)cc1	11%	0%
O=C(NCC#Cc1cccc(C(F)(F)F)c1)c1ccc(=O)[nH]c1	14%	0%
Cc1ccc(NC(=O)c2c(C(=O)Nc3ccccc3)sc3nc(C)cc(=O)n23)c(C)c1	-7%	-6%
CC(C)c1ccc(CN(c2ccc3nnc(C(F)(F)F)n3n2)C2CC2)cc1	2%	7%
Cc1c(C(=O)NCc2ccccc2)sc2nc3n(c(=O)c12)CCC3	11%	74%[activator]
N#Cc1cc2c(nc1SCC(=O)Nc1cccc(Cl)c1)CCCC2	6%	54%[activator]
CSC1=N/C(=C\c2cccc(Cl)c2Cl)C(=O)S1	4%	-1%
O=C(NCc1ccc2c(c1)OCO2)c1ccc2c(c1)N(Cc1c(F)cccc1Cl)C(=O)c1ccccc1S2	-8%	-22%
COc1cccc(CNC(=O)C(CC(C)C)NS(=O)(=O)c2ccc3c(c2)oc(=O)n3C)c1 (stereo not given)	31%[activator]	8%
Cc1ccc(S(=O)(=O)[C@H]2CS(=O)(=O)C[C@@H]2N2CCN(c3cccc(Cl)c3)CC2)cc1	4%	-2%
Cc1ccc2nc(-c3ccc(O)cc3)sc2c1	3%	-21%
O=C(Nc1ccc(-n2cccn2)c(F)c1)C1CCCN(C(=O)c2ccco2)C1 (stereo not given)	-4%	10%
CCCNC(=O)C1=CC(c2ccc3c(c2)OCO3)=NS(=O)(=O)N1C	19%	-11%
NC(=O)NC(=O)CCN1CCOC(c2ccc(Br)cc2)C1 (stereo not given)	-10%	-4%
Cc1noc(-c2ccccc2OCC(=O)Nc2cccc([N+](=O)[O-])c2)n1	-6%	-9%
C/C=C/C=C/C(=O)NCc1ccc(C(=O)NC)cc1	10%	3%
COc1ccc(C(=O)COc2ccc3c(=O)c(Oc4cccc(OC)c4)c(C)oc3c2)cc1	6%	0%
CC(C)NC(=O)CSc1ncc(-c2cccc(Br)c2)o1	-7%	146%[activator]

Other results follow.
Molecule	StopGo RLuc	2A firefly
CCCn1c(=O)c2sccc2n2c(CCCC(=O)NCc3ccccc3)nnc12	-7%	-6%
O=C(CNC(=O)c1nn(Cc2ccccc2)c(=O)c2ccccc12)Nc1ccc(F)c(F)c1	5%	8%
O=C(CN1C(=O)CSc2ccc(S(=O)(=O)N3CCOCC3)cc21)NCCCN1CCCCC1	2%	-2%
Fc1ccc(Nc2nc(-c3ccc(F)cc3)c3c(n2)-c2ccccc2OC3)cc1	14%	2%

Compound activity deposited in PubChem by National Center for Advancing Translational Sciences (NCATS).
